VACV mCherry inh: inhibitors of vaccinia virus infection (mCherry reporter signal); Vaccinia virus mCherry reporter infection, fluorescence; about a quarter of the inactives have no number; Potency, µM (series often up to 36.5 µM), for the others: at the highest dose activity change, negative = inhibition, hits mostly inhibitors; 310,000 tested, 0.63% active; AID 720579; active = well fitted inhibition curve with a large enough effect; inconclusive = small, poorly fitted or top-dose-only effect; inactive = no such curve, though single readings can be large or run the other way; tested in A549 cells; note: nearly all actives have a fitted effect of over 35% in size; inactives centre near -10
VACV Venus inh: inhibitors of vaccinia virus (Venus reporter) | Potency, µM (top dose mostly 36.5 µM), for the others: at the top dose activity change, negative = inhibition, hits mostly inhibitors | Vaccinia virus Venus reporter expression, fluorescence | 330,000 tested, 0.46% active; active means well fitted inhibition curve with a large enough effect; inconclusive means small, poorly fitted or top-dose-only effect; inactive means no such curve, though single readings can be large or run the other way; tested in A549 cells; note: nearly all actives have a fitted effect of over 30% in size; inactives centre near -10
The depositor's hits bear a star; i = inactive; ? = inconclusive; . = no result given; & = joins results of further samples; [ ] = remark or other dose. % is set by controls: 0 for no effect and ±100 for the full control effect; potency is the fitted concentration of half-maximal effect. Compounds as they come; 0.82% or so of the library scored in one or more.

Start of the data: the first two entries as a preview:
Order of values – VACV mCherry inh, VACV Venus inh
- COc1ccc2c(Cl)c(C(=O)NC3CCS(=O)(=O)C3)sc2c1 (stereo not drawn)
    ., -15.6%
- CSc1ccc(CCNC(=O)c2sc3ncccc3c2-n2cccc2)cc1
    -19.5%, -13.5%

The listing, from the first entry:
Order of values – VACV mCherry inh, VACV Venus inh
- COc1ccc2c(Cl)c(C(=O)NC3CCS(=O)(=O)C3)sc2c1 (stereo not drawn)
    ., -15.6%
- CSc1ccc(CCNC(=O)c2sc3ncccc3c2-n2cccc2)cc1
    -19.5%, -13.5%
- CC1(Oc2ccc3ccccc3c2)CCN(Cc2cccn2-c2nccs2)C1 (stereo not drawn)
    -16.3%, -5.9%
- Oc1ccc(Br)cc1-c1cc(-c2ccccc2Cl)[nH]n1
    ?, -27.8%
- COc1ccc(C(C(=O)NC2CCCCC2)N(C(=O)CCCC(=O)Nc2ccccn2)c2ccc3c(c2)OCCO3)cc1 (stereo not drawn)
    -11.9%, -8.2%
- COc1cccc(C(NC(C)=O)c2nc(-c3ccc4ccccc4c3)cs2)c1 (stereo not drawn)
    -29.0%, -8.6%
- COc1cccc(C(NC(C)=O)c2nc(-c3cccs3)cs2)c1 (stereo not drawn)
    3.2%, -3.7%
- CC(=O)c1cccc(NC2c3ccccc3C(=O)N2Cc2ccco2)c1 (stereo not drawn)
    i[7.34 µM], 0.0%[7.34 µM]
- O=C(Oc1ccc(-c2csnn2)cc1)C1CC1
    i, -4.1%
- CCOC(=O)c1c(-c2ccccc2)csc1NC(=O)CSc1nc(C)cc(C)n1
    -27.4%, -25.9%
- COc1ccc2c(c1OC)OCC2C (stereo not drawn)
    -13.2%, -21.7%
- C[C@H](CCC(=O)O)[C@H]1CC[C@H]2[C@@H]3C(=O)C[C@@H]4CC(=O)CC[C@]4(C)[C@H]3CC(=O)[C@]12C
    -0.5%&23.6%, -9.4%&6.9%
- O=C(/C(=C(\O)c1ccccc1)c1ncc[nH]1)c1ccccc1
    -4.8%, -3.8%
- C=CCn1c(O)c(C(C)=NCC2CCCO2)c(=O)[nH]c1=O (stereo not drawn)
    i[7.34 µM], -3.1%[7.34 µM]
- CC(C)CCNC(=O)C1CCC(=O)N1CCc1ccccc1 (stereo not drawn)
    -9.8%, -4.3%

Additional compounds.
Order of values – VACV mCherry inh, VACV Venus inh
- O=C(NCCN1CCOCC1)C1CCN(c2nc3ccccc3o2)CC1
    -5.7%, -10.7%
- CCOc1ccc(NC(=O)N2CC3CCCN3c3ccccc32)cc1 (stereo not drawn)
    -3.3%, -19.7%
- CCCCCC(=O)OCCc1c(C)nc2nc[nH]n2c1=O
    -5.7%, 1.9%
- COCCOC(=O)C1=C(C)NC(=O)NC1c1ccc(Cl)cc1 (stereo not drawn)
    -3.9%, -4.1%
- O=S(=O)(c1ccc(Cl)cc1)N1CCN(CCc2ccccc2)CC1
    -20.6%, -10.0%
- Cc1ccc(S(=O)(=O)CC(=O)Nc2c(C)n(C)n(-c3ccccc3)c2=O)cc1
    -0.9%, -13.5%
- NC(=O)C1CCN(C(=O)c2cnn(-c3ccccc3)c2NC(=O)c2ccco2)CC1
    ., -13.3%
- Cc1nn(Cc2noc(C(=O)NCCc3ccccn3)n2)c(C)c1Br
    i, -12.7%
- COCCn1c(SCC(=O)NCC2CCCO2)nc2c(c1=O)SC(C)C2 (stereo not drawn)
    -13.8%, 4.7%
- CCN(CC)S(=O)(=O)c1ccc(Cl)c(NC(=O)COc2ccc(OC)cc2)c1
    -19.2%, -5.4%
- CC1CCN(C(=O)COC(=O)c2cccc(NS(=O)(=O)c3ccccc3)c2)CC1
    -13.4%, -13.0%
- COc1ccc(S(=O)(=O)N2CCCC(C(=O)Nc3cccc(C(C)=O)c3)C2)cc1 (stereo not drawn)
    ., -16.9%
- Cc1ccc(S(=O)(=O)NC(=O)C2(C)CCN2C(=O)C2(c3ccc(Cl)cc3)CCC2)nc1 (stereo not drawn)
    -11.8%, -4.5%
- Cc1ccc(OCCCC(=O)Nc2ccc(N3CCOCC3)cc2)cc1
    -10.4%, -4.7%
- Cc1cc(C)c(N=Cc2c(O)n(-c3nccs3)c(=O)c3ccccc23)c(C)c1
    -22.8%, -22.3%

Next results:
Order of values – VACV mCherry inh, VACV Venus inh
- Cc1ccc(S(=O)(=O)NCc2ccco2)c(C)c1C
    ., -14.4%
- CCc1ccc(NC(=O)c2sc3nc(C)cc(C)c3c2NC(=O)c2ccccc2OC)cc1
    ?, -12.9%
- Cc1cc(C(=O)Nc2ccccc2C(=O)O)c(C)o1
    -1.2%, -15.1%
- CNC(=O)c1ccc2c(c1)N=C(C)c1cc(C)ccc1S2
    -21.0%, -15.5%
- Cc1ccc(-n2cc(C(=O)c3ccccc3O)cn2)cc1
    i, -12.3%
- CS(=O)(=O)c1ccc(-c2sc3cc4c(cc3c2C(=O)NN2CCOCC2)OCO4)cc1
    i, -2.2%
- COC(=O)c1cn(Cc2ccccc2C)nn1
    -4.8%, -2.2%
- Clc1ccc(-c2cn3cc(Cc4ccccc4)sc3n2)cc1
    6.1%, 5.0%
- CC(=O)N(C)c1ccc(NC(=O)C(Sc2ccccc2)c2ccccc2)cc1 (stereo not drawn)
    i, -8.7%
- COc1ccccc1N(CC(=O)N1CCN(c2ccccc2)CC1)S(=O)(=O)c1ccc(C)cc1
    -18.7%, -14.3%
- N#CC1(NC(=O)CSc2nnc(-c3ccccc3F)n2N)CCCCC1
    -1.7%, -4.4%
- COc1ccc(N2CCN(c3nc(-c4ccccc4F)nc4ccccc34)CC2)cc1
    -16.1%, -8.0%
- COc1cc(OC)cc(-c2c(-c3ccc(F)cc3)c3cc(-c4cnc(OC)nc4)ccc3n2C)c1
    i, -23.1%
- Cc1ccc(NC(=O)/C(C#N)=C/c2cc(C)n(-c3ccc(Br)cc3)c2C)cc1C
    -8.5%, -19.2%
- Brc1cccc(CNCc2cccs2)c1
    -19.3%, -10.2%

(continued)
Order of values – VACV mCherry inh, VACV Venus inh
- Nc1nc(F)cc(NCc2ccccc2)n1
    -0.4%, -13.5%
- Cc1ccc(Cn2c(C(=O)NCc3ccccc3Cl)cc3sccc32)cc1
    1.6%, 4.6%
- CC(C)c1nnc(NC(=O)C2CCN(C(=O)c3ccco3)CC2)s1
    i, -8.8%
- CN(C)C1CN(Cc2cn(Cc3cccc(C(F)(F)F)c3)nn2)S(=O)(=O)C1 (stereo not drawn)
    16.1%, 4.5%
- O=C(O)c1ccccc1SCC(=O)N1CCCCC1
    ., -13.5%
- CCN1CCN(Cc2c(O)ccc3oc(C)c(C(=O)Nc4ccc(OC)c(Cl)c4)c23)CC1
    -9.1%, 1.9%
- COc1ccc(-n2c(Cc3cccn3C)nnc2SCC(=O)N2CCCc3ccccc32)cc1
    -29.0%, -19.8%
- O=C(c1cccnc1)N1CCN(C(=O)c2ccccc2F)CC1
    ., -13.6%
- CC(=O)Oc1ccc(-n2c(=O)c3ccccc3c3ccccc3c2=O)cc1
    -7.4%, -13.4%
- CCOC(=O)c1cc(=O)n(-c2ccc(Cl)cc2C)[nH]1
    i, -13.2%
- CC1CCCCN1C(=O)CN1C(=O)NC2(CCCCC2C)C1=O (stereo not drawn)
    -1.9%, -12.1%
- O=C(Cc1ccc([N+](=O)[O-])cc1)NCCS(=O)(=O)N1CCN(c2ccccc2)CC1
    ?, -15.3%
- C=CCOC(=O)C1=C[C@H](c2ccc(Br)cc2)C[C@H](OCc2ccc(CO)cc2)O1
    -12.5%, -8.4%
- N#CCCN(Cc1ccccc1)C(C(=O)NC1CCCCC1)c1cc2ccccc2o1 (stereo not drawn)
    i, -2.8%
- N#C/C(=C/c1ccc(N2CCCCCC2)o1)c1ccc(F)cc1
    -6.7%, 8.2%

The listing continues.
Order of values – VACV mCherry inh, VACV Venus inh
- COc1cc(/C=N/NC(=O)c2cccc(NC(=O)c3ccccc3)c2)ccc1O
    ?, -8.3%
- O=C(COC(=O)c1cc(Br)ccc1O)NCCC1=CCCCC1
    -3.1%, -9.7%
- Cc1nn(-c2cccc3cccnc23)c(=O)c2ccccc12
    -11.4%, -5.1%
- O=C(N/N=C/c1cccs1)c1n[nH]c2c1CCCC2
    ?, ?
- Cc1cccc(-n2c(Cc3ccccc3)nnc2SCC(=O)N2CCOCC2)c1
    -21.2%, -15.2%
- Cc1ccc(Nc2nnc(-c3ccncc3)s2)c(Br)c1
    -7.0%, 2.4%
- CC(C)CN(C(=O)C1CCCO1)C1CCS(=O)(=O)C1 (stereo not drawn)
    -7.9%, -9.5%
- CCOC(=O)c1cc2c(C(F)(F)F)cc(-c3cccnc3)nc2o1
    ., -14.1%
- COc1cccc(OCCSc2nc(C)c(Cc3ccccc3)c(=O)[nH]2)c1
    -16.4%, -3.2%&-11.0%
- Cc1cccc2[nH]cc(/C=C3/C=Nc4ccccc43)c12
    -16.5%, 26.0%
- CCC1CN(Cc2cn[nH]c2-c2ccc(F)cc2)Cc2cc(OC)ccc2O1 (stereo not drawn)
    -13.5%, -16.0%
- CCOC(=O)c1[nH]c(C)c(C(=O)N2CCN(C(=O)c3ccco3)CC2)c1C
    -7.5%, -5.8%
- O=C(Cc1ccccc1)Nc1ccc(NC(=O)c2ccc(Br)cc2)cc1
    i, 4.1%
- Cn1c(SCC(=O)NC(=O)Nc2ccccc2)nnc1-c1ccncc1
    -25.2%, 0.0%
- O=C(CN1c2ccccc2S(=O)(=O)c2ccccc21)Nc1ccccc1F
    -19.6%, -18.7%

Additional compounds.
Order of values – VACV mCherry inh, VACV Venus inh
- O=C(Nc1ccc(S(=O)(=O)Nc2nccs2)cc1)C1CC(=O)N(c2ccc(Cl)cc2)C1 (stereo not drawn)
    2.3%, -2.7%
- CC(C)(C)c1ccc(C(=O)N2CCCCC2CCN2CCCCC2)cc1 (stereo not drawn)
    -19.2%, -16.0%
- CCOc1ccc(OCC)c(NC(=O)C(NS(=O)(=O)c2ccc(Br)s2)c2ccccc2)c1 (stereo not drawn)
    -24.0%, -23.9%
- CCc1cccc(CC)c1N(COC)C(=O)Cn1c(C)nc2ccccc21
    -10.2%, -16.0%
- COc1ccc2o/c(=N\O)c(C(=O)Nc3ccccc3OC)cc2c1
    -21.7%[1.46 µM], -8.4%
- COc1ccc(CCNC(=O)C(=O)NCC(c2ccco2)S(=O)(=O)c2ccccc2)cc1 (stereo not drawn)
    -8.2%, -11.9%
- COCCN1C=C(C(=O)OC)C(c2ccccc2Cl)C(C(=O)OC)=C1
    -2.9%, 4.4%
- O=C(COC(=O)c1cc([N+](=O)[O-])ccc1N1CCOCC1)c1ccccc1Cl
    -16.8%, -7.8%
- O=C(O)C(c1ccccc1)N1C(=O)/C(=C\c2ccc(-c3ccc(Br)cc3)o2)SC1=S (stereo not drawn)
    i, 13.6%
- Cc1cc(O)c(-c2ccno2)cc1Cl
    -10.4%, -5.4%
- CCC[C@H](CN[C@@H](CNC)[C@H](C)CC)NCCc1cc(C(F)(F)F)cc(C(F)(F)F)c1
    ?, 20µM*
- Cc1ccc(NC(=O)C2CC(=O)N/C(=N/N=C/c3ccco3)S2)cc1 (stereo not drawn)
    i, -6.4%
- COc1ccc(NC(=O)CCCNC(=O)Cn2cnc3sc(C)c(C)c3c2=O)cc1Cl
    i, -7.6%
- COc1ccc(C2=CC(c3cccc(OC)c3)n3nnnc3N2)cc1 (stereo not drawn)
    i, 3.9%
- CN(C)/C=C/C1=C([N+](=O)[O-])C(c2cccc([N+](=O)[O-])c2)NC(=O)N1 (stereo not drawn)
    6.1%, 3.5%

Continued:
Order of values – VACV mCherry inh, VACV Venus inh
- CCOc1ccc(-c2nc(SCC(=O)NCCOC)c(-c3ccc(OC)c(OC)c3)[nH]2)cc1
    -10.7%, -7.3%
- COc1ccccc1C(=O)Nc1ccnn1C1CCN(Cc2ccccc2OCCO)CC1
    -16.9%, ?
- Cc1ccc2nc(Nc3ccc(Br)cc3)nc(-c3ccccc3)c2c1
    -13.6%, -6.8%
- CC(C)CN(CC(C)C)c1nnc(NC(=O)Cn2c(=O)oc3ccccc32)s1
    -27.5%, -8.1%
- O=C(/C=C/c1cn(-c2ccccc2)nc1-c1cccc(Cl)c1)N1CCN(c2ccccn2)CC1
    ?, -26.5%
- O=C1CS(=O)(=O)c2ccccc2N1
    -0.3%, -29.4%
- O=C(NCc1cccc(Cl)c1)C1CCC(=O)N(CCCN2CCCC2=O)C1 (stereo not drawn)
    -13.1%, -12.9%
- CC(=O)N1c2ccc(S(=O)(=O)N3CCCCCC3)cc2CC1C(=O)NCc1cccc(F)c1 (stereo not drawn)
    -3.4%, 2.8%
- O=C(CSc1ccc2nnc(-c3ccccn3)n2n1)NCc1ccc2c(c1)OCO2
    -7.4%, -4.0%
- CCOC(=O)c1c(NC(=O)c2cc(=O)c3ccc(C)cc3o2)sc(C)c1C
    -4.2%, -12.4%
- O=C(COc1ccccc1)Nc1ccc(Cl)cn1
    -2.2%, -19.5%
- C[C@@H]1CN([C@H](C)CO)C(=O)CCCn2nncc2CO[C@H]1CN(C)C
    i, -6.0%
- CN(C)CCCNC(=O)c1cc(C(=O)c2ccccc2F)c[nH]1
    i, -6.9%
- CCOc1ccc2nc3cc(N)ccc3c(N)c2c1
    6.8%, 3.1%
- CCc1ccc(NC(=O)c2cc(S(=O)(=O)N3CCCC(C)C3)cn2C)cc1 (stereo not drawn)
    -8.1%, -7.6%

Next entries
Order of values – VACV mCherry inh, VACV Venus inh
- Cc1c(N=C2NN=C(c3ccc(Cl)cc3)CS2)c(=O)n(-c2ccccc2)n1C
    -8.2%, -3.3%
- CCOC(=O)n1c(=O)n(Cc2ccc(Cl)cc2Cl)c2ccccc21
    ., ?
- Cc1cc(C)c2ccc(=O)n(CC(=O)N/N=C/c3ccccc3Cl)c2n1
    i, -6.2%
- O=S(=O)(Cc1cc(Cl)nc(-c2ccccc2)n1)c1ccccc1
    i, -9.4%

Source: PubChem
